AF4-AF9 inh = blocks AF4 peptide binding to human AF9; P42568; AlphaScreen, biotin-AF4 peptide binding to FLAG-AF9; inhibition, % at 10 µM; 350,000 compounds, 0.47% hits;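 active means every replicate reaching a set inhibition limit, whatever the replicate mean, cut at about 25% in these data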;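 further: 0% = plate neutral control median and 100% = total signal loss; the record names both 10 and 1 µM as test concentration; the first replicate is given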
Target sequence (P42568 whole entry, looked up): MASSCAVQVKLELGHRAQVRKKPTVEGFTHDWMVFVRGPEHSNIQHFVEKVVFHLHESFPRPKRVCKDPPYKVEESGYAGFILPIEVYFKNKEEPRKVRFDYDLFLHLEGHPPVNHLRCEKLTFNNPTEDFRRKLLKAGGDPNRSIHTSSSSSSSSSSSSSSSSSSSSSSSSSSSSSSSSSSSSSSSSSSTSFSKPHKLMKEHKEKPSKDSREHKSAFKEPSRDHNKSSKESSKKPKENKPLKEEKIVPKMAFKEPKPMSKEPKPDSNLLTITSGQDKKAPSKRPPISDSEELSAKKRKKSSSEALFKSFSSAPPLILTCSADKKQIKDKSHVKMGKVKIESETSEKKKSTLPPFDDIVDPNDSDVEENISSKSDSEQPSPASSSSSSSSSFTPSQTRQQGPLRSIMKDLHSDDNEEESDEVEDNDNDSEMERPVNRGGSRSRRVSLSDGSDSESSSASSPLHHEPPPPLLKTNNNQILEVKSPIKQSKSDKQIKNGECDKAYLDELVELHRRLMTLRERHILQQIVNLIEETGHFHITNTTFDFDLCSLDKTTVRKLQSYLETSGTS
FGF22 binding = FGF22 (human) thermal shift binding | recombinant FGF22 thermal shift, SYPRO orange fluorescence; percent of sucrose octasulfate shift, DMSO zero | AID 651658 | 340,000 compounds, 1.5% hits | calls only at 9.99 µM;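 active means melting point raised past a set limit in the mean and every replicate; three in four hits are not shown here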
Target sequence (Q9HCT0 whole entry, looked up): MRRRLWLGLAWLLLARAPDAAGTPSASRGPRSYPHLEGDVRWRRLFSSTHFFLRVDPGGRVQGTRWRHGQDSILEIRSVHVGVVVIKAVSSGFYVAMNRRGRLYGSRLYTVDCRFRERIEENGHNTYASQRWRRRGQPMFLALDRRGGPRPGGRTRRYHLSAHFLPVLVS
Numbers without * were called inactive; i = inactive.

Results follow in this order: AF4-AF9 inh	FGF22 binding
- O=C(C1CCC1)N1CCCCN2[C@H](C1)[C@@H](c1ccc(C#CC3(O)CCCC3)cc1)[C@@H]2CO
  -4.0	i
- COc1ccccc1S(=O)(=O)N[C@@H]1CC[C@H](CC(=O)N2CCN(C)CC2)O[C@@H]1CO
  -1.5	i
- COc1ccc(S(=O)(=O)N(C)C[C@@H]2OCCCC[C@@H](C)Oc3ccc(NC(=O)C4CCCCC4)cc3C(=O)N([C@H](C)CO)C[C@@H]2C)cc1
  -3.5	i
- C[C@@H]1CN([C@@H](C)CO)C(=O)c2cccc(NC(=O)C3CC3)c2O[C@H]1CN(C)C(=O)Nc1ccc(C(F)(F)F)cc1
  -1.9	i
- O=C(NC1CCCC1)[C@H]1[C@H](CO)[C@H]2Cn3c(ccc(-c4ccncc4)c3=O)[C@H]2N1CC1CC1
  0.4	i
- Cc1ccc(-c2ccccc2[C@H]2[C@@H](C#N)N(C(=O)Cc3cccnc3)[C@H]2CO)cc1
  1.5	i
- C[C@@H]1CN([C@H](C)CO)C(=O)Cc2cc(NC(=O)Cc3ccccc3)ccc2O[C@@H]1CN(C)S(=O)(=O)c1ccccc1
  0.1	i
- COCC(=O)Nc1ccc2c(c1)C(=O)N(C)[C@H]1CC[C@H](CC(=O)NCc3ccccc3)O[C@H]1CO2
  -2.3	i
- Cc1noc(C)c1NC(=O)N(C)C[C@@H]1Oc2ccc(NC(=O)NC(C)C)cc2CC(=O)N([C@@H](C)CO)C[C@@H]1C
  -2.1	i
- C[C@H]1CN([C@@H](C)CO)C(=O)c2cc(NC(=O)CCCCCC(=O)Nc3ccccc3N)ccc2O[C@@H]1CN(C)C(=O)Nc1cccc2ccccc12
  -3.0	i
- CCCC#Cc1cnc2c(c1)C(=O)N([C@H](C)CO)C[C@H](C)[C@H](CN(C)C(=O)Nc1ccccc1OC)O2
  -3.1	i
- CNC[C@H]1Oc2c(NC(=O)Nc3cccc4ccccc34)cccc2C(=O)N([C@H](C)CO)C[C@H]1C
  6.7	i
- C[C@@H](O)C#Cc1ccc2c(c1)O[C@@H](CN(C)Cc1ccccc1)[C@@H](C)CN([C@@H](C)CO)S2(=O)=O
  -4.4	i
- Cc1noc(C)c1S(=O)(=O)Nc1cccc2c1O[C@H](CN(C)S(=O)(=O)c1ccc(F)cc1)[C@H](C)CN([C@@H](C)CO)C2=O
  -0.6	i
- COc1cccc(S(=O)(=O)N[C@@H]2CC[C@H](CCn3cc(-c4ccccn4)nn3)O[C@@H]2CO)c1
  -0.8	i
- CN(C)C(=O)c1ccc(-c2ccc3n(c2=O)C[C@@H]2[C@@H](CO)[C@H](C(=O)NCCc4ccccc4)N[C@H]32)cc1
  -1.4	i
- C[C@@H]1CN([C@H](C)CO)C(=O)c2cccc(NC(=O)C3CCOCC3)c2O[C@@H]1CN(C)S(=O)(=O)c1cccs1
  -4.7	i
- O=C(Nc1ccccc1)Nc1ccc2c(c1)[C@H]1C[C@H](CC(=O)N3CCCCC3)O[C@@H](CO)[C@H]1O2
  0.2	i
- COC(=O)[C@@H](NC(=O)CN=[N+]=[N-])c1ccccc1
  -4.5	i
- COc1ccc2c3c([nH]c2c1)[C@H](CO)N(C(=O)C1CCOCC1)CC31CCN(Cc2nccs2)CC1
  6.7	i
- CS(=O)(=O)Nc1ccc2c(c1)[C@@H]1C[C@H](CC(=O)NC3CCCC3)O[C@H](CO)[C@@H]1O2
  -1.7	i
- C[C@H]1CN([C@@H](C)CO)C(=O)Cc2cc(NS(=O)(=O)c3ccc(Cl)cc3)ccc2O[C@H]1CN(C)Cc1ccc(C(=O)O)cc1
  1.0	i
- COC(=O)[C@]12C[C@H](CC(=O)NCc3ccc(OC)c(OC)c3)C(=O)N(Cc3ccc4c(c3)OCO4)C1=C[C@H](C(C)(C)C)O[C@@H]2C
  4.0	i
- CC(C)CC#Cc1cnc2c(c1)C(=O)N([C@H](C)CO)C[C@H](C)[C@@H](CN(C)S(=O)(=O)c1cccs1)O2
  4.1	i
- CCCN(C)C[C@@H]1OCCCC[C@@H](C)Oc2ccc(NC(=O)NC(C)C)cc2C(=O)N([C@H](C)CO)C[C@@H]1C
  -2.0	i
- COCc1cn(CC[C@H]2CC[C@H](NC(=O)Nc3ccccc3)[C@@H](CO)O2)nn1
  -2.0	i
- O=C(C[C@@H]1C[C@H]2c3cc(NC(=O)Nc4ccccc4F)ccc3O[C@H]2[C@H](CO)O1)NCc1ccc(Oc2ccccc2)cc1
  -0.8	i
- C[C@H]1CN([C@@H](C)CO)C(=O)c2cccc(NC(=O)C3CCOCC3)c2O[C@@H]1CN(C)Cc1ccc(C(=O)O)cc1
  2.4	i
- COc1ccc(NC(=O)N(C)C[C@H]2Oc3ccc(NC(=O)CCN4CCOCC4)cc3C(=O)N([C@H](C)CO)C[C@H]2C)cc1
  -2.0	i
- C[C@@H]1CN([C@@H](C)CO)C(=O)c2cc(NS(=O)(=O)c3ccc(Cl)cc3)ccc2O[C@@H](C)CCCCO[C@H]1CN(C)C(=O)C1CCCCC1
  0.2	i

Reformatted: results already given.
> Cc1ccc(-c2ccccc2[C@H]2[C@@H](C#N)N(C(=O)Cc3cccnc3)[C@H]2CO)cc1
  AF4-AF9 inh: 1.5
  FGF22 binding: i
> C[C@@H]1CN([C@H](C)CO)C(=O)Cc2cc(NC(=O)Cc3ccccc3)ccc2O[C@@H]1CN(C)S(=O)(=O)c1ccccc1
  AF4-AF9 inh: 0.1
  FGF22 binding: i
> COCC(=O)Nc1ccc2c(c1)C(=O)N(C)[C@H]1CC[C@H](CC(=O)NCc3ccccc3)O[C@H]1CO2
  AF4-AF9 inh: -2.3
  FGF22 binding: i
> Cc1noc(C)c1NC(=O)N(C)C[C@@H]1Oc2ccc(NC(=O)NC(C)C)cc2CC(=O)N([C@@H](C)CO)C[C@@H]1C
  AF4-AF9 inh: -2.1
  FGF22 binding: i

(list continues)
Results follow in this order: AF4-AF9 inh	FGF22 binding
- CO[C@@H]1CN(C)C(=O)c2ccc(NS(=O)(=O)c3c(C)noc3C)cc2OC[C@H](C)NC[C@H]1C
  -4.3	i
- Cc1noc(C)c1S(=O)(=O)N(C)C[C@H]1Oc2ccc(NS(C)(=O)=O)cc2CC(=O)N([C@@H](C)CO)C[C@H]1C
  -2.0	i
- CCC(=O)Nc1ccc2c(c1)OC[C@H](C)N(C(=O)CN(C)C)C[C@H](C)[C@H](OC)CN(C)C2=O
  -0.3	i
- C[C@H](CO)N1C[C@H](C)[C@H](CN(C)C(=O)Nc2ccccc2)Oc2ncc(C#CC(C)(C)O)cc2C1=O
  -3.9	i
- COc1cccc(-c2ccc([C@@H]3[C@@H](C#N)N(C(=O)Cc4ccncc4)[C@@H]3CO)cc2)c1
  8.9	i
- C[C@@H]1CN([C@@H](C)CO)S(=O)(=O)c2ccc(C#Cc3cccnc3)cc2O[C@H]1CN(C)C(=O)C1CC1
  0.5	i
- O=C(N[C@@H]1CC[C@@H](CC(=O)N2CCOCC2)O[C@@H]1CO)c1ccccn1
  0.0	i
- COCCNC(=O)[C@@H]1[C@@H](CO)[C@@H]2Cn3c(cccc3=O)[C@H]1N2Cc1cccc(Cl)c1
  -0.8	i
- C[C@H]1CN([C@@H](C)CO)C(=O)c2cccc(NC(=O)Nc3ccc(C(F)(F)F)cc3)c2O[C@@H]1CN(C)C(=O)NC1CCCCC1
  3.7	i
- Cc1noc(C)c1NC(=O)N(C)C[C@H]1Oc2ccc(NC(=O)CCC(F)(F)F)cc2CC(=O)N([C@H](C)CO)C[C@H]1C
  -1.2	i
- C[C@H]1CN([C@@H](C)CO)C(=O)c2cc(NC(=O)CCCCCC(=O)Nc3ccccc3N)ccc2O[C@@H]1CN(C)S(=O)(=O)c1cn(C)cn1
  -2.1	i
- CO[C@H]1CN(C)C(=O)c2cc(NC(=O)Nc3c(C)noc3C)ccc2OC[C@H](C)NC[C@@H]1C
  -1.6	i
- CC(C)NC(=O)Nc1ccc2c(c1)CC(=O)N([C@H](C)CO)C[C@@H](C)[C@@H](CN(C)C(=O)NC(C)C)O2
  -1.1	i
- C[C@@H]1CN([C@@H](C)CO)S(=O)(=O)c2ccc(C#CC(C)(C)O)cc2O[C@H]1CN(C)C
  -1.2	i
- COc1ccc(NC(=O)Nc2ccc3c(c2)C(=O)N([C@@H](C)CO)C[C@@H](C)[C@@H](CN(C)S(=O)(=O)c2ccc(C)cc2)OCCCC[C@H](C)O3)cc1
  -8.9	i
- O=C(C[C@H]1CC[C@@H]2[C@H](COC[C@H](O)CN2CCC(F)(F)F)O1)NCc1ccc2c(c1)OCO2
  -0.5	i
- C[C@@H]1CN([C@H](C)CO)S(=O)(=O)c2ccc(/C=C/c3ccccc3)cc2O[C@H]1CN(C)Cc1ccc(C(=O)O)cc1
  12.2	i
- CCC(=O)N1[C@@H](CO)[C@@H](c2ccccc2)C12CN(C(=O)c1ccc(F)cc1)C2
  -1.9	i
- COc1cccc(S(=O)(=O)N2C[C@@H](O)COC[C@H]3O[C@H](CC(=O)N4CCN(c5ccccc5)CC4)CC[C@@H]32)c1
  1.5	i
- CCCCCCCCN1C(=O)[C@@H](CC(=O)N2CCN(C(=O)C3CC3)CC2)C[C@@]2(C(=O)OC)C1=C[C@H](C(C)(C)C)O[C@@H]2C
  1.4	i
- O=C(NCC1CC1)[C@@H]1[C@@H](CO)[C@@H]2Cn3c(cccc3=O)[C@@H]2N1Cc1cncnc1
  0.9	i
- Cc1ccc(S(=O)(=O)Nc2ccc3c(c2)C(=O)N([C@H](C)CO)C[C@H](C)[C@H](CN(C)S(=O)(=O)c2ccc(Cl)cc2)O3)cc1
  -6.7	i
- COC(=O)C[C@@H]1CC[C@@H]2[C@@H](COc3ccc(NC(=O)c4cccc(F)c4)cc3C(=O)N2C)O1
  -1.7	i
- COCCNC(=O)C[C@H]1C=C[C@@H](NC(=O)NC2CCCCC2)[C@H](CO)O1
  1.1	i
- CO[C@@H]1CN(C)C(=O)c2cc(NS(=O)(=O)c3cn(C)cn3)ccc2OC[C@H](C)N(Cc2cccc(F)c2)C[C@@H]1C
  0.4	i
- C[C@@H]1CN([C@@H](C)CO)C(=O)c2cc(-c3ccncc3)cnc2O[C@H]1CN(C)C(=O)Nc1ccc2c(c1)OCO2
  -1.4	i
- C[C@H](CO)N1C[C@H](C)[C@@H](CN(C)C(=O)Nc2ccc3c(c2)OCO3)OCCCC[C@H](C)Oc2ccc(NC(=O)CCCN(C)C)cc2C1=O
  2.6	i
- C[C@H](CO)N1C[C@H](C)[C@@H](CN(C)C(=O)Nc2ccc3c(c2)OCO3)OCCCC[C@H](C)Oc2ccc(NS(=O)(=O)c3ccccc3)cc2C1=O
  5.8	i
- C[C@H](CO)N1C[C@H](C)[C@H](CN(C)Cc2ccc3c(c2)OCO3)Oc2ccc(NC(=O)NC3CCCCC3)cc2CC1=O
  -2.4	i
- O=C(CC1CC1)N1CC(=O)N2[C@H](CO)[C@@H](c3ccc(-c4cccnc4)cc3)[C@@H]2C1
  -1.3	i

Next section.
Results follow in this order: AF4-AF9 inh	FGF22 binding
- Cc1ccc(S(=O)(=O)N(C)C[C@H]2Oc3ccc(NC(=O)CCCCCC(=O)Nc4ccccc4N)cc3C(=O)N([C@@H](C)CO)C[C@H]2C)cc1
  -2.4	i
- COc1cccc(C(=O)N2C[C@H]3[C@@H](c4ccccc42)[C@H](CO)N3C(=O)c2cccc(F)c2)c1
  -1.5	i
- COc1ccc(S(=O)(=O)N(C)C[C@@H]2OCCCC[C@H](C)Oc3ccc(NC(=O)CCCN(C)C)cc3C(=O)N([C@H](C)CO)C[C@H]2C)cc1
  1.9	i
- C[C@@H]1CCCCO[C@@H](CN(C)C(=O)c2ccccc2)[C@H](C)CN([C@H](C)CO)C(=O)c2cc(NC(=O)Nc3ccc4c(c3)OCO4)ccc2O1
  1.5	i
- CCCN(C)C[C@@H]1OCCCC[C@H](C)Oc2ccc(NC(=O)CCCN(C)C)cc2C(=O)N([C@@H](C)CO)C[C@@H]1C
  4.2	i
- COc1ccc2c3c(n(C)c2c1)[C@@H](CO)N(C(=O)C1CC1)CC31CN(C(=O)CN(C)C)C1
  0.3	i
- COc1ccc(CNC(=O)C[C@H]2CC[C@H]3[C@H](COc4ccc(NC(=O)C5CC5)cc4C(=O)N3C)O2)cc1
  -1.7	i
- O=C(NCC[C@H]1CC[C@@H](NS(=O)(=O)c2cccc(F)c2)[C@@H](CO)O1)c1cnccn1
  1.2	i
- Cc1ccc(S(=O)(=O)N(C)C[C@@H]2OCCCC[C@H](C)Oc3ccc(NC(=O)Nc4ccc(F)cc4)cc3C(=O)N([C@H](C)CO)C[C@@H]2C)cc1
  -0.2	i
- C[C@@H]1CN([C@H](C)CO)S(=O)(=O)c2ccc(-c3ccccc3)cc2O[C@H]1CN(C)Cc1ccccc1C(=O)O
  5.4	i
- C[C@@H]1CN([C@H](C)CO)C(=O)c2cc(NC(=O)C3CCCCC3)ccc2O[C@@H](C)CCCCO[C@H]1CN(C)C(=O)NC1CCCCC1
  -4.8	i
- C[C@@H]1CN([C@H](C)CO)C(=O)c2cc(C#Cc3ccccn3)cnc2O[C@@H]1CN(C)Cc1cccnc1
  -6.5	i
- O=C(CCN1CCCCC1)N[C@@H]1CC[C@@H](CCn2cc(-c3ccc(F)cc3)nn2)O[C@@H]1CO
  0.4	i
- C[C@@H]1CN([C@H](C)CO)C(=O)CCCn2cc(nn2)CO[C@@H]1CN(C)S(=O)(=O)c1ccc(F)cc1
  -0.8	i
- COc1ccc2c3c([nH]c2c1)[C@H](CO)N(Cc1ccccc1)CC31CN(S(=O)(=O)c2ccc(C)cc2)C1
  1.8	i

Source: PubChem BioAssay

Some of the compounds tested, so the mix of outcomes need not match the whole.
